UCH37 DUB inh: inhibitors of human UCH37 deubiquitinase, primary screen, biochemical, Ub-AMC cleavage, fluorescence. purified proteasome/UCH37. inhibition, % (concentration not given with the values). Ubiquitin carboxyl-terminal hydrolase isozyme L5 (Homo sapiens), Q9Y5K5. 330,000 tested, 0.33% active;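 active means mean of two replicates above 20%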;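 further: 0% = compound-free wells with enzyme and 100% = wells lacking proteasome; stock transfer was 100 nL into about 20 µL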
Target sequence (Q9Y5K5 whole entry, looked up): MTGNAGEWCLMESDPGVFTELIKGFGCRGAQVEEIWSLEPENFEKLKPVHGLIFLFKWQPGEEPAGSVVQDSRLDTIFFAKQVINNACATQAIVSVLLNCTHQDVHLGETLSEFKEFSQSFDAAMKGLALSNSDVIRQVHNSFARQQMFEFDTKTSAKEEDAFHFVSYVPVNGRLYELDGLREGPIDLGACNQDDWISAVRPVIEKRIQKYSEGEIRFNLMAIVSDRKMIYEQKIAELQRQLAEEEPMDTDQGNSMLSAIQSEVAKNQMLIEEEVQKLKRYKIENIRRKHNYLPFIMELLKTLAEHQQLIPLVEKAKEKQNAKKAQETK
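Schedule: 30 min plus 25 min, room temperature / Material: human UCH37 within purified proteasomes / Technique: AMC fluorescence intensity at 355/460 nm / Buffer or medium: pH 7.4 Tris-HCl (50 mM) with ovalbumin, ATP-MgCl2, DTT / Controls: wells without proteasome as full block, compound-free enzyme plus substrate as uninhibited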
Ecoli growth: E. coli growth inhibition, primary screen, OD600; Escherichia coli growth, 23 h; hits give low values; OD600 absorbance (concentration not given with the values); 330,000 tested, 0.21% active;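 active means OD600 absorbance below the run mean of sample wells minus 3.6 SD, in any replicate, cut at about 0.56 in these data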;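 further: stock transfer was 300 nL into about 60 µL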
FGF22 binding: binders of human FGF22 protein, primary screen, FGF22 synaptogenesis inhibitor project, biophysical, thermal shift, single point; Fibroblast growth factor 22 (Homo sapiens), Q9HCT0; recombinant FGF22 thermal shift, SYPRO orange fluorescence; percent of sucrose octasulfate shift, DMSO zero; calls only at 9.99 µM; 340,000 tested, 1.5% active; AID 651658, 2012;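 active means melting point raised past a set limit in the mean and every replicate; three in four hits are not shown here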
Target sequence (Q9HCT0 whole entry, looked up): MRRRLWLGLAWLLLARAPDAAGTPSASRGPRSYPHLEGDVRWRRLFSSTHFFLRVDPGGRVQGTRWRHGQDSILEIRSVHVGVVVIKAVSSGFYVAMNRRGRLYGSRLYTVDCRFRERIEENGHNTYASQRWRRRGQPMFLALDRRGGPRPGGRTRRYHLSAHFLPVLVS
rRNA inh HTS: reduced GFP signal of wild-type E. coli, primary screen, bacterial rRNA inhibitor project, GFP/RFP fluorescence, OD600, single point; E. coli WT GFP vs humanized-ribosome RFP mutants, 24 h; hits give low values; DMSO median 0, no signal -100; GFP signal change (wild-type ribosome), % (concentration not given with the values); 350,000 tested, 1.6% active;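 active means significant combined selectivity score with lowered wild-type GFP, culture density cut under 30%, mutant RFP and density less affected; inactive means any of these conditions unmet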; further: one replicate is shown; some compounds called inactive have numbers as strong as hits
ALR H2O2 inh: inhibitors of human ALR sulfhydryl oxidase, primary screen, biochemical, H2O2 detection, HRP-luminol luminescence, single point. FAD-linked sulfhydryl oxidase ALR (Homo sapiens), P55789. 290,000 tested, 3.8% active. purified ALR, DTT oxidation. AID 485317, 2010. inhibition, % (no concentration beside the values);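 active means mean and each replicate at 75% or more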;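 further: stock transfer was 7.5 nL into about 7.5 µL; 0% = neutral wells and 100% = wells with inactivated enzyme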
Target sequence (P55789 whole entry, looked up): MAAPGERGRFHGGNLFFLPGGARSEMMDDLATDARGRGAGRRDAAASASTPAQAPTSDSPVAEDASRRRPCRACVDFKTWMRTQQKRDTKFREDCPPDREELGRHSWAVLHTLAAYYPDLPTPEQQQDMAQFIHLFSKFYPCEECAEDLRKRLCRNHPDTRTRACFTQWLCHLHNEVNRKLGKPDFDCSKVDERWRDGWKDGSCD
B2AR ag: beta2AR agonists driving receptor internalization, primary screen, cell-based, FAP fluorogen, flow cytometry | Beta-2 adrenergic receptor (Homo sapiens), P07550 | Am2.2-beta2AR cells; reference of the scale not given here | 340,000 tested, 0.43% active | response, % (concentration not given with the values);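 active means response above a set limit, near 3 SD of response in nonfluorescent compounds, cut at about 42% in these data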;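 further: stock transfer was 100 nL into about 11 µL; a reference agonist was the positive control; negative values mostly stem from fluorescent compounds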
HNF4A DNA FP: change in binding of human HNF4A to DNA, primary screen, biochemical, fluorescence polarization, FITC-DNA; 1 h; activity change, % at 10 µM; 360,000 tested, 0.3% active; in the data active means activity change above about 30%, passing the limit was not always enough;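 further: controls were the assay level and a saturating level of protein; the project sought stronger binding though the title names inhibitors; some compounds called inactive have numbers as strong as hits; positive values seem to mean higher polarization but the record does not say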
rRNA inh HTS OD600: recorded beside rRNA inh HTS, whose call it bears; OD600 change, %; measured here: OD600 growth;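 optical density of the mix in the first replicate; 0 = DMSO median and -100 = no signal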
rRNA inh HTS RFP: second read-out of rRNA inh HTS, no call of its own (marks repeat the call); RFP signal change, %; measured here: RFP humanized mutant strains;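 first replicate; 0 = DMSO median and -100 = no signal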
* = called active by the depositor; i = inactive; x = no result given; & = joins results of further samples. These rows are one share of the data; the hit share may differ from the screen's.

SMILES	UCH37 DUB inh	Ecoli growth	FGF22 binding	rRNA inh HTS	rRNA inh HTS OD600	rRNA inh HTS RFP	ALR H2O2 inh	B2AR ag	HNF4A DNA FP
O=C(N[C@@H](Cc1ccccc1)C(=O)N1CCN(S(=O)(=O)c2ccccc2F)CC1)c1ccco1	5.0	0.7	i	x	x	x	4	-13	2.5
COc1ccc(CNC(=O)CCCC2=NS(=O)(=O)c3ccccc3N2)cc1	2.5	0.61	i	3	14	-0.3	-6	3	1.3
c1ccc(-n2ncc(-c3nn[nH]n3)n2)cc1	0.9	0.73	x	x	x	x	50	0	0.1
Cc1c(C(=O)N/N=C/c2cccnc2)sc(=S)n1C	x	x	x	x	x	x	-3	42*	2.6
CCCCn1c(N)c(N(CCC(C)C)C(=O)c2cc(Cl)nc3ccccc23)c(=O)[nH]c1=O	1.1	0.63	i	5	5	-2.5	-7	7	-2.0
CCC1(C)OC(=O)N(CCCn2ccnc2C)C1(C)O (configuration not stated)	2.3	0.7	x	x	x	x	x	-2	-4.8
Cc1ccc(-c2cc(C(F)F)nc(NCC3CCCO3)n2)cc1 (configuration not stated)	-11	0.68	x	x	x	x	-6	-4	-1.8
Cc1ccc(C(=O)N/C(=C/c2cccs2)C(=O)NCc2ccco2)cc1	2.3	x	i	7	5	0.2	-6	-3	-0.2
COc1ccc(-c2oc3ccc(-c4ccc(OC)nc4)cc3c2-c2ccc(OC)cc2)cc1	-48	0.74	i	7	9	0.0	-8	3	4.1
O=C(NCc1ccccc1)c1ccc2c(c1)C(=O)N(Cc1cccnc1)C2=O	1.1	0.72	i	-12	-27	0.9	-15	-4	1.5
CCN(C(=O)c1ccc(S(=O)(=O)N2CCCCC2)cc1)C1CCS(=O)(=O)C1 (configuration not stated)	-0.2	0.68	x	11	8	1.3	0	1	0.6
CCOC(=O)C1=C(C)Nc2nnnn2C1c1cccc(OC)c1OC (configuration not stated)	-0.2	0.65	x	x	x	x	7	3	19
COc1ccc(CCN2C(=O)CC(C(N)=O)SC2=Nc2ccc(F)cc2)cc1OC (configuration not stated)	4.0	0.7	i	-13	-14	-9.0	x	2	-4.9
COc1ccccc1N1CCN(C(=O)CNC(=O)Cn2cnc3sc(C)c(C)c3c2=O)CC1	0.4	0.66	i	6	2	0.6	-1	0	-0.9
O=C(COc1ccc(Cl)cc1Cl)Nc1ccc(C(=O)Nc2ccccc2C(=O)O)cc1	-39	0.7	i	-33	-43	-2.8	-2	10	-4.8
NS(=O)(=O)c1ccc(NC(=O)CN2CCCN(S(=O)(=O)c3ccc(F)cc3)CC2)cc1	2.0	0.65	i	7	8	0.5	-2	8	-4.5
COC(=O)c1sccc1NC(=O)Nc1cccc([N+](=O)[O-])c1	-2.5	0.74	i	7	10	1.3	-6	-4	3.0
Cc1ccc2cc(CN(CCc3ccccc3)C(=S)NCCCN(C)C)c(=O)[nH]c2c1	x	x	i	-26	-29	-1.0	2	14	0.5
Fc1ccc(CN2C3=NCCN3c3ccccc32)cc1	2.7	0.63	i	0	-3	-1.6	95*	-5	-0.2
CC(C)(C)OC(=O)N1CCc2onc(-c3ccc([N+](=O)[O-])cc3)c2C1=O	x	x	i	4	16	-0.9	x	x	-1.2
Cc1ccc(CNS(=O)(=O)c2ccc3c(c2)NC(=O)CO3)cc1	3.5	0.68	i	-6	-1	-1.6	28	-3	-0.4
COc1ccc(NC(=O)c2cc(S(=O)(=O)N3CCc4ccccc43)cn2C)c(OC)c1	1.7	x	x	x	x	x	0	4	-1.5
CCc1ccccc1NC(=O)CN(c1ccc(OC)cc1OC)S(=O)(=O)c1ccccc1	4.8	0.64	i	-20	-34	-2.7	5	-3	1.3
COc1ccc(C(=O)Nc2cc([N+](=O)[O-])ccc2N2CCN(C)CC2)cc1	5.7	0.75	x	x	x	x	-11	-11	-0.1
O=C(COc1ccccc1F)Nc1cc(S(=O)(=O)Nc2cccc(Cl)c2)ccc1O	2.2	0.72	i	x	x	x	x	16	-0.3
Cc1cc(NC(=O)CCC(=O)N(CC(=O)NC2CCCC2)Cc2ccc3c(c2)OCO3)no1	1.6	0.69	i	5	1	-4.2	-9	9	1.5
CN(C)S(=O)(=O)c1ccc(N2CCCC2)c(C(=O)N2CCN(S(=O)(=O)c3ccc(F)cc3)CC2)c1	2.5	0.65	i	-6	1	-0.1	-4	11	1.0
COc1ccc(C(C(=O)NC(C)(C)C)N(Cc2cccnc2)C(=O)CCC(=O)Nc2cc(C)on2)cc1 (configuration not stated)	0.1	0.64	i	-3	8	16	x	-3	1.4
Cc1noc(/C=C/c2cccs2)c1S(=O)(=O)N1CCC(C(=O)NCCCN2CCCC(C)C2)CC1 (configuration not stated)	x	x	i	-5	-7	2.9	-1	2	-0.8
COc1ccc([N+](=O)[O-])cc1NC(=O)C(C)Sc1nc(-c2ccccc2)cs1 (configuration not stated)	3.1	0.75	i	4	10	-6.3	-2	-2	0.7
Cc1ccc([N+](=O)[O-])cc1S(=O)(=O)Nc1cccc(-c2ccc(N3CCOCC3)nn2)c1	-1.0	0.62	i	9	26	1.8	-9	6	1.5
O=C(Nc1cccn2ncnc12)c1ccc(Cl)cc1Cl	-3.1	0.75	x	x	x	x	x	-10	2.3
O=C(NCc1ccco1)c1ccc([N+](=O)[O-])o1	x	x	i	-15	-5	-4.9	-9	3	-19
COc1ccc(C(=O)Nc2ccccc2C(=O)Nc2cccnc2)cc1	-2.4	0.66	i	-8	-8	-0.9	x	-10	1.1
COc1ccc(NS(=O)(=O)c2cc(NC(=O)CCc3ccc(OC)c(OC)c3)ccc2N2CCOCC2)cc1	3.3	0.67	i	3	-6	4.5	x	1	1.7
Cc1ccnc(SC2CC(=O)N(c3ccc([N+](=O)[O-])cc3)C2=O)n1 (configuration not stated)	7.7	0.68	i	1	10	-2.8	16	0	-0.5
CC(/C=C/C=C/c1ccccc1)=N/NC(=O)C(O)c1ccccc1 (configuration not stated)	x	x	i	7	4	0.1	-2	-1	1.1
CCOc1ccccc1OCC(=O)Nc1c(C)n(C)n(-c2ccccc2)c1=O	1.1	0.66	i	5	13	-1.8	4	-6	1.9
Cc1ccc2c(c1)N(S(=O)(=O)c1cc(-c3onc(C)c3C)ccc1C)CCO2	1.5	0.62	i	0	-13	-1.3	-1	-7	1.2
COc1ccc(/C=N/NC(=O)CNC(=O)/C=C/c2ccccc2OC)cc1	x	x	i	2	4	-1.2	-3	4	3.9
C[C@H]1CCCCO[C@H](CN(C)C(=O)C2CCCCC2)[C@@H](C)CN([C@@H](C)CO)C(=O)c2cc(NC(=O)NC3CCCCC3)ccc2O1	x	x	i	-3&1	-8&-5	-2.1&-1.8	x	x	-0.9
CCCC1CCC(=C(C#N)C(N)=O)CC1 (configuration not stated)	0.3	0.64	i	15	-5	11	-2	-6	-2.4
Cc1ccc(NCc2n[nH]c(=S)n2-c2ccccc2)cc1	-0.3	0.76	i	2	0	-0.1	98*	6	2.2
CC(C)(C)C(=O)Nc1ccc(-c2cc3cc(Cl)ccc3o2)cc1	2.7	0.61	i	3	8	3.0	-3	1	0.1
COc1ccc(C(CNC(=O)c2cccc(S(=O)(=O)Nc3cccc(C)c3)c2)N2CCOCC2)cc1 (configuration not stated)	x	x	x	-4	-9	2.6	x	6	-0.8
O=C(CNS(=O)(=O)c1ccc(Br)cc1)NCc1cccnc1	3.3	0.66	i	3	11	-2.8	-3	0	-0.2
CCc1ccc(N2C(=O)C3C4CCC(C4=C(C)C)C3C2=O)cc1 (configuration not stated)	3.4	x	i	-2	-13	-8.1	0	1	-5.4
CCCC(=O)Nc1nc2ccc(OCC)cc2s1	1.2	0.67	i	-6	-4	1.7	-4	-8	-1.6
CCOC(=O)C1Cc2ccccc2CN1 (configuration not stated)	3.0	0.68	x	x	x	x	-10	0	0.5
O=C1CN(C(=O)COC(=O)c2ccc(Br)o2)c2ccccc2N1	0.8	0.69	i	6	10	-1.4	x	-1	1.8
CC(C)CC(NC(=O)c1cccc(Cl)c1)C(=O)O (configuration not stated)	4.1	0.74	i	20	15	2.4	4	-2	-1.9
O=C(Nc1ccccc1)NC1CC2CCC(C1)N2Cc1nnnn1Cc1ccc2c(c1)OCO2 (configuration not stated)	3.2	0.72	x	x	x	x	-4	-8	-3.2
CCCCCCN1C=C/C(=C\C=C(C#N)C#N)c2ccccc21	5.1	0.81	i	-18	13	36	2	-18	23
CN1CCN([C@H]2CS(=O)(=O)N[C@@H]2COCc2ccccc2)CC1	x	x	i	21	18	0.1	x	x	4.2
Cc1ccc(S(=O)(=O)N2CCCN(S(=O)(=O)c3ccc4c(c3)OCCO4)CC2)cc1	-0.6	0.67	x	x	x	x	-4	13	0.3
COC(=O)c1ccc(NC(=O)CSc2nn3c(=O)c(C)nnc3s2)cc1	7.1	0.69	i	6	4	-3.9	93*	4	1.5
O=C(c1ccc(-n2cnnn2)cc1)N1CCOCC1	-0.4	0.71	x	x	x	x	-6	6	-0.5
CC(=O)NC(Cc1ccccc1C)C(=O)NC1CCN(c2nnnn2-c2ccccc2)CC1 (configuration not stated)	-1.8	0.76	i	10	0	-5.1	-3	-16	1.1
C/C(=N/NC(=O)CC(=O)N/N=C(\C)c1ccc([N+](=O)[O-])cc1)c1ccc([N+](=O)[O-])cc1	x	x	i	13	9	0.4	3	-4	-0.8
CC1(c2nnnn2-c2ccc3c(c2)OCCO3)CCC(=O)N1C1CCN(Cc2ccccc2)CC1 (configuration not stated)	x	x	i	16	13	2.1	x	x	3.2
O=C(CCCc1nc2ccccc2s1)NC(c1ccccc1)c1ccccc1	1.3	0.7	x	x	x	x	-1	-3	-2.9
CC(=O)c1nc(N2C(=O)CC(Cc3ccc(C)cc3)C2=O)sc1C (configuration not stated)	-0.3	0.66	i	x	x	x	14	3	1.5
CC(C)C1C(C#N)=C(N)Oc2n[nH]c(-c3cccs3)c21 (configuration not stated)	0.6	0.68	x	x	x	x	82*	-15	5.2

Retrieved one by one from the entries so far:
SMILES	UCH37 DUB inh	Ecoli growth	FGF22 binding	rRNA inh HTS	rRNA inh HTS OD600	rRNA inh HTS RFP	ALR H2O2 inh	B2AR ag	HNF4A DNA FP
COc1ccccc1N1CCN(C(=O)CNC(=O)Cn2cnc3sc(C)c(C)c3c2=O)CC1	0.4	0.66	i	6	2	0.6	-1	0	-0.9
O=C(CNS(=O)(=O)c1ccc(Br)cc1)NCc1cccnc1	3.3	0.66	i	3	11	-2.8	-3	0	-0.2
Cc1ccc([N+](=O)[O-])cc1S(=O)(=O)Nc1cccc(-c2ccc(N3CCOCC3)nn2)c1	-1.0	0.62	i	9	26	1.8	-9	6	1.5
O=C(c1ccc(-n2cnnn2)cc1)N1CCOCC1	-0.4	0.71	x	x	x	x	-6	6	-0.5
c1ccc(-n2ncc(-c3nn[nH]n3)n2)cc1	0.9	0.73	x	x	x	x	50	0	0.1
COc1ccc(CNC(=O)CCCC2=NS(=O)(=O)c3ccccc3N2)cc1	2.5	0.61	i	3	14	-0.3	-6	3	1.3

Source: PubChem BioAssay
